TRPML1 blocker = inhibitors of human TRPML1 channel; activity change, negative = inhibition, % (concentration not given with the values); 0.02% of 390,000 active; TRPML1-inducible cells, Ca2+ dye fluorescence, FDSS; hits give low values; inhibition of EC80 agonist-evoked calcium signal; Q9GZU1; in the data active means activity change below about -50%; inconclusive means about -30% to -50%; inactive means above about -30%;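 also: stimulus is agonist 54-4 at its EC80 concentration; % is scaled to controls: 0 for no effect and ±100 for the full control effect; compound concentration not given in the record; the text of the record puts the active cut at -80%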
Target sequence (Q9GZU1 whole entry, looked up): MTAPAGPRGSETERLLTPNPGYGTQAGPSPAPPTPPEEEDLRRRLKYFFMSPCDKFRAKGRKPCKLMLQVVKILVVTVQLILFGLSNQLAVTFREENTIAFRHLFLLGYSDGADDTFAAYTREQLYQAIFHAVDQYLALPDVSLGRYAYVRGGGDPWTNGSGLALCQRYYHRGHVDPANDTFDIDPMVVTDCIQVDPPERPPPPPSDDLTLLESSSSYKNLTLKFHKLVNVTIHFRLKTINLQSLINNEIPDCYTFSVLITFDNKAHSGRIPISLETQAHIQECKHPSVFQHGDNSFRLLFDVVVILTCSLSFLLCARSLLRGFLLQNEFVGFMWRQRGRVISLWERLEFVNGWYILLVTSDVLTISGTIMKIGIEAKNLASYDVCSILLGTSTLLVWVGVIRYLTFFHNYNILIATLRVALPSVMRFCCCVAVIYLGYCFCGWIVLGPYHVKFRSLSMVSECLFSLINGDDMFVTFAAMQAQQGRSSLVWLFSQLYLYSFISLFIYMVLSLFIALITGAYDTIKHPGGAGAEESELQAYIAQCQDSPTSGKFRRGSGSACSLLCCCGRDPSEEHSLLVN
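TRPML1-DL cells, Tet-induced overnight (~16 h, 37 °C) at 1,500 cells/well, were loaded with Ca8 no-wash dye plus quencher for 45-90 min at room temperature. Compounds were pinned during FDSS kinetic reading; agonist 54-4 at EC80 (4 uM final) then added.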
TRPML1 ag = agonists of human TRPML1 channel | TRPML1-expressing cells, Ca2+ dye fluorescence, FDSS; host cell line not named in the record; reference of the full effect not given here | AID 624414 | activation, % (no concentration beside the values) | Q9GZU1 | 0.12% of 410,000 active; in the data active = activation above about 50%; inconclusive = about 30% to 50%; inactive = below about 30%; also: 0% is about no effect; the text of the record puts the active cut at 80%
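Calcium fluorescence on an FDSS kinetic reader gave the read-out. Tet-induced TRPML1-DL cells were plated overnight, dye-loaded (Ca8 with quencher, 45-90 min, room temperature, dark), then read 110 s after compound addition, and again 110 s after 4uM final 54-4 (EC80).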
gsp ag = agonists of gsp mutant (McCune-Albright syndrome) | gsp mutant cells, cAMP HTRF, 30 min; control for the full effect not named in the record | Potency, µM (highest dose often 76.9 µM), without a hit: at the top dose activation (cAMP increase), usual class: activators | 0.13% of 340,000 active; active = well fitted activation curve with a large enough effect; inconclusive = small, poorly fitted or top-dose-only effect, or another doubt; inactive = no such curve, though single readings can be large or run the other way; cell line not stated here;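 also: phosphodiesterase inhibitor Ro 20-1724 added with compounds to block cAMP breakdown; potency is read from the fitted curve at half-maximal effect; nearly all actives have a fitted effect of over 60% in size; about a fifth of the inactives were tested at one dose only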
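Cells in DMEM/10% FBS with G418 were pretreated with compounds in DMSO plus […] (300 uM stock) for 30 min at 37C. cAMP was measured by HTRF (cAMP-d2 plus anti-cAMP antibody-K) after 30 min at room temperature.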
gsp antag = gsp mutant antagonism | 0.4% of 340,000 active | Potency, µM (titrated, usually from 76.9 µM), for inactives: at the highest dose activity change, negative = inhibition, usual class: inhibitors | gsp-mutant cells, cAMP HTRF, 30 min; control for the full effect not named in the record; active = falling curve of any shape with a large fitted effect; inconclusive = falling curve, mostly with a smaller effect; inactive = flat or rising curve; cell line not stated here;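 also: intracellular cAMP measured with PDE inhibitor Ro 20-1724 present during compound exposure; potency is read from the fitted curve at half-maximal effect; % is scaled to controls: 0 for no effect and ±100 for the full control effect; nearly all actives have a fitted effect of over 65% in size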
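HTRF cAMP read-out (cAMP-d2 plus anti-cAMP antibody-K in lysis buffer, 30 min RT). Before lysis, cells are exposed to compounds with […] for 30 min at 37C in DPBS containing Ca/Mg, BSA and Tween 20.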
Menin MLL FP FL = inhibitors of human menin-MLL interaction, wild-type MLL peptide; 290,000 tested, under 10 active; AID 1766; Fluorescence polarization, fluorescein-MLL peptide displacement from menin; FP activity change, % at 61.4 µM; inconclusive = falling polarisation curve, or a change in total fluorescence; inactive = total fluorescence flat and polarisation flat or rising; no compound was filed as active; the % refers to the polarisation; negative = inhibition;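 also: % of control where 0% means no effect; inhibitors lower the polarisation; unlabelled MLL peptide was the positive control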
ClpP mod = qHTS Assay for Activators of ClpP | ATP-dependent Clp protease proteolytic subunit (Bacillus subtilis (strain 168)), P80244 | purified B. subtilis ClpP, FRET peptide cleavage, 20 min | Potency, µM (highest dose often 57.5 µM), inactives show at the highest dose activity change, negative = active | 1.9% of 340,000 active | AID 651965, 2013; active = well fitted falling curve with a large enough effect; inconclusive = small, poorly fitted or top-dose-only effect; inactive = no such curve, though single readings can be large or run the other way; also: potency is read from the fitted curve at half-maximal effect; the source files actives as falling curves though it sought activators and does not explain the sign; nearly all actives have a fitted effect of over 65% in size; many hits overshoot -100%
Target sequence (P80244 whole entry, looked up): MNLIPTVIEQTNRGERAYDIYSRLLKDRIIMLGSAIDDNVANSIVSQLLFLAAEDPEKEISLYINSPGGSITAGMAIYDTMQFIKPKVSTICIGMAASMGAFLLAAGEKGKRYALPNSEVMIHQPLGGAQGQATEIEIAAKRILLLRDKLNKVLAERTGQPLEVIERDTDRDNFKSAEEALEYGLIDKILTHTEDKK
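Purified B. subtilis ClpP, 10 microg/mL final in Tris/HCl pH8 with KCl, BSA, glycerol and Tween-20, cleaved an Abz/nitrotyrosine-quenched decapeptide. Fluorescence (ex 320, em 430) was read at 0 and 20 min at room temperature. Delta was normalized to 5.8 microM ADEP and DMSO/no-enzyme controls.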
The depositor's hits bear a star; ? = inconclusive; . = not tested or not shown; [ ] = dose if it differs, or a comment.

SMILES	TRPML1 blocker	TRPML1 ag	gsp ag	gsp antag	Menin MLL FP FL	ClpP mod
COc1cc(OC)c(S(=O)(=O)N2CCOCC2)cc1S(=O)(=O)N1CCOCC1	-9	0.5	?	4%	0.2	-0.8%
CCC(C)c1ccccc1N1CC(C(=O)Nc2ccccc2N2CCCC2)CC1=O (stereo not drawn)	48	-0.2	-21%	-8%	0.0	-0.7%
COc1cccc2oc3ccc(C#CC4(N)CCCCC4)cc3c(=O)c12	7	-0.2	.	9%	5.3	3.5%
Cc1oc2nc(SCC(=O)Nc3ccc(S(N)(=O)=O)cc3)nc(NC(=O)c3ccccc3)c2c1C	2	0.4	-7%	9%	2.1	217%
COc1ccc(C(=O)Cc2ccccc2)cc1OC	-8	1.3	-15%	1%	2.3	0.2%
Cc1ccc(C2=N/C(=C\c3c(C)nn(-c4ccccc4)c3N3CCCC3)C(=O)O2)cc1	-8	0.4	0%	-10%	?	-1.1%
COC(=O)CN1C(=O)CC(C)(C)S(=O)c2ccccc21 (stereo not drawn)	7	0.1	-37%[inhibitor]	8%	2.8	-0.6%
O=C(NCCCn1ccnc1)c1ccc(NS(=O)(=O)c2ccc(Cl)c(Cl)c2)cc1	8	0.7	0%[15.4 µM]	1%	.	.
COc1ccc(CC(=O)NCc2n[nH]c(=S)n2-c2cccc(C)c2)cc1	9	-0.1	13%	-5%	0.4	.
O=C(COC(=O)c1cc[n+]([O-])cc1)Nc1ccc(Cl)cc1Cl	-20	-0.1	0%	12%	.	0.8%
COc1ccc(NC(=O)Cn2c3ncccc3c(=O)n2-c2ccc(C)c(C)c2)c(OC)c1	-2	-0.5	.	.	.	-11%
COC(=O)N1C(=O)[C@@](c2ccccc2)(C(C)C)N1C(=O)OC	36	-0.8	.	11%	-1.8	-3.5%
NC(N)=N/N=C(\N=Nc1ccccc1)c1ccc(Cl)cc1	5	3.5	1%	9%	.	1.2%
O=C(CCS(=O)(=O)c1ccccc1)Nc1ccc(S(=O)(=O)Nc2nccs2)cc1	20	0.3	7%[15.4 µM]	2%	.	0.8%
O=c1[nH]c(-c2ccccc2)cnc1-c1ccccc1	5	0.3	10%[15.4 µM]	18%	.	0.3%
CC(=O)N1c2nc(-c3ccco3)nn2C2(CCCCC2)[C@@H]2CCCC[C@@H]21	6	1.3	.	.	.	1.2%
COc1ccc(/C=N/NC(=O)c2[nH]nc3c2CCc2ccccc2-3)cc1OC	9	0.9	26%	18%	1.0	3.9%
CCOc1ccc(C(=O)NCCCN2CCOCC2)cc1OCC	-1	-0.2	-2%[15.4 µM]	11%	-3.0	.
C[C@@]12C(=O)N(c3cccc(F)c3)C(=O)N1[C@H](c1ccc(Cl)cc1)[C@@H]1C(=O)N(C3CCCCC3)C(=O)[C@@H]12	-3	1.2	-13%	-6%	.	-1.9%
Cc1ccc(-c2csc(NC(=O)c3c(C)noc3C)n2)s1	6	1.1	4%	-14%	.	-6.1%
O=C(CCN1C(=O)S/C(=C\c2ccccc2)C1=O)Nc1ccc(S(=O)(=O)Nc2nccs2)cc1	3	0.8	-6%	0%	1.7	-2.7%
O=C(C1CCCCC1)N1C[C@H](O)[C@@H](n2cc(-c3ccc(F)cc3)nn2)C[C@@H]1c1ccccc1	-13	0.6	-95%[inhibitor]	.	.	1.3%
COc1ccc(O)c(C2(O)C(=O)c3ccccc3C2=O)c1	29	1.4	-23%[15.4 µM]	3%	?	.
O=C(NCCN1CCOCC1)c1noc2c1CCc1ccccc1-2	14	2.4	-42%[inhibitor]	-2%	3.2	-1.9%
CCCc1cc(=O)oc2cc(C)cc(OCC(=O)N[C@@H](CSCc3ccccc3)C(=O)O)c12	.	.	.	-4%	-6.9	4.3%
Cn1c(-c2ccccc2)n[nH]c1=S	-6	-0.6	9%[15.4 µM]	7%	-3.2	-0.9%
C[C@@]12C(=O)Nc3cc(F)c(F)cc3C(=O)N1[C@H]1c3cc(Cl)ccc3OC[C@@H]1[C@@H]2c1ccccc1	34	1.3	.	-1%	.	-12%
COC(=O)c1cnc(Nc2cccc(C(F)(F)F)c2)c([N+](=O)[O-])c1	-2	2.3	1%	-3%	4.3	.
COc1cc(C)c(C(=O)CSc2nnc(CNC(=O)c3ccco3)n2C)cc1C	43	0.4	8%	5%	0.0	.
O=C1CSC(c2ccc(F)cc2)N1c1nc2ccccc2s1 (stereo not drawn)	-8	3.3	15%	-15%	3.1	0.7%
CCOc1ccc(-n2c(=O)c3c4c(sc3n(Cc3cccc(Cl)c3)c2=O)CCCC4)cc1	-21	0.0	.	.	.	-0.7%
O=C(N/N=C/c1c(O)ccc2ccccc12)c1ccc(CO)nc1	14	1.6	18%	-7%	?	.
COc1ccc(CCNC(=O)COc2ncnc3ccccc23)cc1OC	-6	-0.3	2%[15.4 µM]	-6%	0.5	-0.4%
C=CCN1C(=O)/C(=C\C=C2\N(C)c3ccccc3C2(C)C)SC1=S	-7	4.0	21%	-3%	?	.
CCCC1(CCC)NC(=O)N(CC(=O)Nc2ccccc2OC)C1=O	9	0.7	-4%	7%	2.7	1.8%
CCC1=Nc2cc(C(=O)NCCCOC(C)C)ccc2Sc2ccccc21	3	1.7	11%	-5%	-2.0	-1.2%
Cc1ccc(C(=O)NNC(=S)NC(=O)COc2ccccc2)cc1	-6	0.3	10%	-3%	1.3	-6.0%
O=c1c(OC2OC(CO)C(O)C(O)C2O)c(-c2ccc(O)c(O)c2)oc2cc(O)cc(O)c12 (stereo not drawn)	12	-1.1	.	0%	0.1	-1.6%
CCC(Sc1nncn2c1cc1sccc12)C(=O)Nc1cccc(OC)c1 (stereo not drawn)	8	0.3	.	.	.	-5.8%
CS(=O)(=O)c1ccccc1-c1nc(-c2ccc([N+](=O)[O-])cc2)no1	6	1.2	19%[15.4 µM]	-6%	-1.4	.
CCN1C(=O)c2ccccc2Sc2ccc(NC(=O)COc3ccc(Cl)cc3)cc21	-3	-0.4	.	.	.	-0.4%
CCC(C)n1c(SCC(=O)/C(C#N)=C(\C)N)nc2ccccc2c1=O (stereo not drawn)	3	2.3	-49%[inhibitor]	3%	.	-0.9%
C[C@@H]1CN([C@H](C)CO)C(=O)CCCn2cc(nn2)CO[C@H]1CN(C)C(=O)Nc1ccc2c(c1)OCO2	42	-0.2	-187%[inhibitor]	.	.	1.8%
Cc1ccc(S(=O)(=O)N2C(=O)C(c3ccccc3)SC2=Nc2ccccc2)cc1 (stereo not drawn)	17	1.9	-35%[inhibitor]	-11%[15.4 µM]	1.3	0.7%
NC(=S)NNc1cccc(Cl)c1	7	1.0	-52%[inhibitor]	1%	-2.1	0.9%
COc1ccc(C(=O)/C=C/NCc2ccc(C)cc2)cc1	-3	-1.0	0%	-4%	.	0.9%
CCn1c(SCC(=O)Nc2ccccc2-c2ccccc2)nnc1-c1ccoc1C	-8	-0.7	-31%[inhibitor]	-14%	-10	0.7%
O=C(COc1ccc(F)cc1)NC1CC(=O)N(c2ccc3c(c2)OCCO3)C1 (stereo not drawn)	-17	0.0	.	.	.	-1.6%
Cn1c(=O)c2c(nc(SCC(=O)Nc3ccccc3N3CCCCC3)n2C)n(C)c1=O	-11	0.4	5%	-1%	5.6	-0.8%
Cc1ccc(/C=N/NC(=S)NC2CCCCC2)o1	0	1.7	-23%	1%	0.7	.
COc1ccc(N2CCN(Cc3nc4ccsc4c(=O)[nH]3)CC2)cc1	6	-0.6	8%	-5%	4.0	-1.3%
COCCn1c(N)c(N(Cc2ccccc2)C(=O)CSCC(=O)Nc2ccc(OC)cc2)c(=O)[nH]c1=O	-6	-0.7	-9%	16%	.	-2.7%
N#Cc1c(N)sc2c1CCN(C(=O)OCc1ccccc1)C2	-1	0.5	-5%	-11%	?	-1.4%
Cc1nn(CC(=O)NCc2ccccc2Br)c(=O)c2cc3occc3n12	20	0.4	.	.	.	-5.0%
CC(C)(C)OC(=O)NCC(=O)Oc1cc2oc(=O)cc(-c3ccccc3)c2cc1Cl	-3	0.0	0%	?	?	-5.8%
CC1(CCC(=O)N2CCCC(Nc3ccc(F)cc3)C2)CC1 (stereo not drawn)	10	0.9	5%	0%	.	-8.4%
C/C(CC(=O)Nc1ccc(N(C)C)cc1)=N\NC(=O)c1ccc(Cl)cc1Cl	-8	0.3	-12%[15.4 µM]	?	0.7	0.8%
Cc1cccc(CS(=O)(=O)Cc2ccc(C(=O)NC3CCCC3)o2)c1	-18	0.8	-13%	14%	0.7	-0.5%
COc1ccccc1CCNC(=O)c1ccc2nc[nH]c2c1	23	-0.5	?	11%	.	-2.1%
NC(=O)C1CCCN(Cc2ccc(Cl)cc2)C1 (stereo not drawn)	10	0.1	-51%[inhibitor]	9%	5.0	0.1%

The list goes on.
SMILES	TRPML1 blocker	TRPML1 ag	gsp ag	gsp antag	Menin MLL FP FL	ClpP mod
COc1cccc(C(C(=O)NCC2CCCO2)N(C(=O)Cn2nnc3ccccc32)c2ccc(NC(C)=O)cc2)c1OC (stereo not drawn)	-1	-0.2	17%[15.4 µM]	-3%	-1.8	-16%
CCOCCn1cnc2sc(C(=O)NCCCN3CCOCC3)c(C)c2c1=O	13	-0.4	21%	4%	.	0.8%
N/C(=N\N=C\c1ccco1)SC1CC(=O)N(c2ccc(C(=O)O)cc2)C1=O (stereo not drawn)	31	-0.5	-4%	8%	-0.4	.
Cn1c(-c2cccc(OCc3ccccc3)c2)nc2c1c(=O)[nH]c(=O)n2Cc1ccccc1	2	-0.3	-43%	8%	-1.0	-0.4%
CCOC(=O)N1CCN(C(=O)CSc2nnc(-c3c[nH]c4ccccc34)n2CCOC)CC1	15	1.5	-52%	-13%	2.5	-13%
O=C(NC1CCCC1)c1ccc2c(c1)N(Cc1ccccc1)CCS2	8	1.5	?	?	-1.6	3.7%
Clc1ccc(-c2nnc(-c3ccc(Br)o3)o2)c(Cl)c1	-1	2.6	20%	10%	-1.4	12%
O=C(CSc1nnnn1C1CCCC1)N1CCCCC1	13	0.5	-19%	4%	0.2	.
COCCN(C(=O)c1ccc(N2CCCC2=O)cc1)c1c(N)n(CC(C)C)c(=O)[nH]c1=O	5	0.8	-24%	11%	.	-1.1%
CC(=O)c1ccc(NC(=O)c2ccc(-c3nc(CSc4ccccc4)c(C)o3)cc2)cc1	2	0.1	.	.	.	-4.9%
O=C1NCCCC1C(=O)N/N=C/c1ccc(Cl)cc1 (stereo not drawn)	38	-0.1	9%[15.4 µM]	6%	5.2	-0.4%

High-throughput results deposited in PubChem by National Center for Advancing Translational Sciences (NCATS).
